Compound activity (PubChem)
BJeLR lethal: MLPCN primary cell-based screen for lethality selective to Ras in HRASV12 cells | inhibition, % (no concentration beside the values) | AID 1554, 2009 | hit rate 0.17% among 300,000 | BJeLR (HRASV12) viability, CellTiter-Glo ATP luminescence, 48 h; reference of the scale not given here;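 active = replicate mean above 50%; inconclusive = above 50% but judged a plate artefact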;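 also: 50 nL library stock added to about 25 µL; numbers are from one replicate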
Mtb hypoxia rep: PubChem AID 1159583; M. tuberculosis hypoxia-regulated fluorescent reporter, fluorescence; fluorescence inhibition, % (concentration not given with the values); hit rate 0.1% among 300,000;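 active = 35 to 45% if threefold the growth effect, above 45% if 1.5-fold the growth effect; inactive = the rest, general growth blockers included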;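 also: wells of about 50 µL received 100 nL stock; 0% = vehicle wells and 100% = reference inhibitor wells; whole bacteria with a GFP reporter of the hypoxia response; strong numbers were not always called active; many hits fall short of the cut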
Sa RN4220 lethal: growth inhibition of S. aureus RN4220, primary screen, OD600. 16 h. inhibition, % (no concentration beside the values). hit rate 0.33% among 330,000. AID 1259311, 2017;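 active = z-score of -3 or lower and OD600 up to 0.18 on both plates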;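 also: plate controls were untreated cells for no effect and reference antibiotic for full effect; stock transfer was 100 nL into about 80 µL; one replicate is shown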
Sa ugtP lethal: growth inhibition of ugtP-null S. aureus, primary screen, RN4220 ugtP deletion, OD600; 16 h; some inactives read as strong as hits; growth inhibition, % (test concentration not listed); hit rate 0.54% among 330,000;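 active = z-score under -3 and OD600 up to 0.15 on both plates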;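 also: plate controls were untreated wells for no effect and antibiotic for full effect; wells of about 80 µL received 100 nL stock; the first replicate is given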
Bead autofluor: flagged as autofluorescent in microsphere protease counterscreen | compound autofluorescence counterscreen, microsphere flow cytometry; stronger effect = higher value | fluorescence intensity (test concentration not listed) | hit rate 3.1% among 360,000 | AID 624483;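 active = at least 3 SD above the mean of all compounds, about 16000 in these data; inconclusive = too few beads counted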;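 also: 100 nL of 1 mM stock went into each well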
PrP UTR inh: inhibition of PrP 5' UTR reporter expression; cell-based PrP 5' UTR mRNA reporter, plate reader; inhibition, % (test concentration not listed); hit rate 0.35% among 340,000;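 active = every replicate at 50% or more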;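 also: 0 = median of the neutral control wells; tested in H4 reporter cells; numbers are from one replicate; inactives centre near -14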
Mtb hypoxia rep growth: recorded beside Mtb hypoxia rep, whose call it bears; growth inhibition, %; measured here: M. tuberculosis growth (absorbance);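 0% = vehicle and 100% = reference antibiotic; read after six days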
The depositor's hits bear a star; ? = inconclusive; nt = no result given.

Every second line gives: BJeLR lethal	Mtb hypoxia rep	Mtb hypoxia rep growth	Sa RN4220 lethal	Sa ugtP lethal	Bead autofluor	PrP UTR inh
[1] O=C(C/C=N/OCc1c(Cl)cccc1Cl)c1ccccc1
 : 2	nt	nt	nt	nt	23991*	-31
[2] Nc1ncc(Br)cc1S(=O)(=O)Nc1ccccc1F
 : -1	-5	-7	6.8	-1	4783	-5
[3] CC(=O)c1ccc(NC(=S)NCCc2cccc(Cl)c2)cc1
 : 2	4	11	8.5	-9	4542	-53
[4] Cc1nnc(-n2cnc3ccccc32)c2ccccc12
 : -2	9	5	4.4	6	3709	-11
[5] COc1ccccc1-c1ccc(SCC(=O)Nc2cc(C)on2)nn1
 : -3	11	5	7.4	22	3148	-20
[6] CC(=O)Nc1ccc(SCC(Cc2ccccc2)N2CCN(CCc3ccccc3)CCC2=O)cc1 (configuration not stated)
 : nt	18	12	1.3	0	nt	nt
[7] COc1cccc(N(C(C)=O)c2nc(C)cc(C)c2C#N)c1
 : -5	12	5	5.7	11	15285	-12
[8] COc1cc2c(-c3ccccc3)c(C)oc2cc1C=NNC(N)=S
 : nt	9	4	3.3	1	nt	nt
[9] O=C(OCc1csc(-c2ccccc2)n1)c1cccs1
 : 0	nt	nt	2.4	1	4594	-54
[10] CCOC(=O)CC(=O)CSc1nc2c(cc1C#N)CCC2
 : 6	nt	nt	3.7	-11	2416	-17
[11] CCC(C)NC(=O)c1ccc2c(Cl)c3c(nc2c1)CCC3 (configuration not stated)
 : -4	6	10	-1.8	4	4279	-106
[12] O=C(O)CCN1C(=O)C2C3C=CC(C2C1=O)C1C(=O)N(CCC(=O)O)C(=O)C31 (configuration not stated)
 : -1	-7	-3	3.4	5	2976	-20
[13] COc1ccc(Nc2cc(C)nc(-n3nc(C)cc3C)n2)cc1
 : 49	-3	7	2.4	-2	10948	nt
[14] CC(NC(=O)c1cc(F)c(F)cc1Cl)c1ccncc1 (configuration not stated)
 : -18	8	-2	2.0	4	4421	-18
[15] CCC1CCCCN1Cc1ccc(CNC(=O)CCc2nnc3ccc(N4CCCCC4)nn23)o1 (configuration not stated)
 : 7	16	0	2.9	1	4098	-13
[16] CCC(C)C(=O)Nc1nnc(SCC(=O)Nc2ccc(F)cc2)s1 (configuration not stated)
 : 5	12	9	2.5	9	6335	-19
[17] Cc1nc(CNS(=O)(=O)c2ccc(F)cc2)cs1
 : 9	10	-1	1.9	3	3926	-18
[18] C=CCN(Cc1nc(-c2ccccc2)no1)C(=O)c1ccco1
 : 0	7	-8	-4.7	9	3473	-25
[19] Cc1cc(C)n(-c2ccc(C(=O)OCc3nnc(-c4ccccc4)o3)cc2)n1
 : 4	nt	nt	4.4	2	5074	-9
[20] NC(N)=NS(=O)(=O)c1ccc(N/C=C/C(=O)c2ccc(Cl)c(Cl)c2)cc1
 : 11	-3	0	-4.1	3	3457	-21
[21] COCCCNCCCCOc1ccc(Br)cc1Cl
 : -1	22	14	4.6	6	2536	-11
[22] C=C(C)CSC1=C(C#N)C(c2ccccc2Cl)CC(=O)N1 (configuration not stated)
 : 3	nt	nt	nt	nt	23035*	-12
[23] CCC(=NCc1cccnc1)c1c(O)n(-c2ccc(C)cc2)c(=O)[nH]c1=O
 : 4	3	4	2.8	4	3762	-10
[24] COc1cc(CC(CC(=O)O)CC(C)OCc2ccccc2)cc(OC)c1 (configuration not stated)
 : 2	12	4	5.1	3	2442	-28
[25] Cc1ccc(C)c(S(=O)(=O)c2c(N)n(N=Cc3ccco3)c3nc4ccccc4nc23)c1
 : nt	16	9	-6.0	20	nt	nt
[26] CCOC(=O)c1csc(NC(=O)CSc2nnnn2-c2ccc(OC)c(OC)c2)n1
 : -9	nt	nt	-1.0	1	2701	-28
[27] O=C1N(Cc2cccnc2)C[C@@H]2C[C@@H](c3cccc(C(F)(F)F)c3)N3CCC[C@@]123
 : -7	13	6	-0.5	6	3517	-14
[28] COc1ccc(C)cc1NC1=NC(C)(C)CS1
 : 12	-9	7	-2.3	3	4440	-26
[29] CSC(=C[N+](=O)[O-])Nc1ccccc1
 : nt	3	9	-0.5	-5	nt	nt
[30] CCCCC(=O)Nc1ccc(NC(=O)c2ccc3c(c2)OCO3)cc1OC
 : 2	5	7	3.6	7	22707*	-3
[31] CN(Cc1ccccn1)Cc1nc(-c2ccc(Cl)cc2)no1
 : 0	6	-6	-3.3	5	5079	-13
[32] CSC1=N/C(=C\c2ccc(Cl)cc2)C(=O)N1N(C)C
 : 4	4	14	4.2	15	3759	-16
[33] Cc1cccc(NC(=O)C2CC(=O)N(Cc3ccccc3)C2)n1 (configuration not stated)
 : -5	-4	-9	2.3	0	4551	-21
[34] COC(=O)c1ccc(N2CCOCC2)c(NC(=O)c2ccco2)c1
 : 2	nt	nt	nt	nt	5435	-13
[35] O=C(NCc1ccc(F)cc1)Nc1cccc([N+](=O)[O-])c1
 : 1	-7	5	0.9	10	4129	-136
[36] O=c1oc(CCCO)cc2ccccc12
 : nt	3	2	-1.0	-18	3826	8
[37] CCOc1ccc(Cn2nnc(C(=O)NCc3ccccc3)c2N)cc1
 : -2	nt	nt	0.3	-4	5911	0
[38] NC(=O)NC(=O)CSc1cccc(C(F)(F)F)c1
 : -6	4	-10	-3.4	1	11911	-58
[39] O=C(NCc1cccnc1)c1ccccc1-c1ccccc1
 : -3	-6	-11	1.2	-3	3491	-18
[40] CC(C)n1cc(CN2CCCC(CNS(=O)(=O)c3cccc4cccnc34)C2)cn1 (configuration not stated)
 : -2	-4	4	0.9	4	6141	-13

The last three entries of the section above lead into the next:
Every second line gives: BJeLR lethal	Mtb hypoxia rep	Mtb hypoxia rep growth	Sa RN4220 lethal	Sa ugtP lethal	Bead autofluor	PrP UTR inh
[38] NC(=O)NC(=O)CSc1cccc(C(F)(F)F)c1
 : -6	4	-10	-3.4	1	11911	-58
[39] O=C(NCc1cccnc1)c1ccccc1-c1ccccc1
 : -3	-6	-11	1.2	-3	3491	-18
[40] CC(C)n1cc(CN2CCCC(CNS(=O)(=O)c3cccc4cccnc34)C2)cn1 (configuration not stated)
 : -2	-4	4	0.9	4	6141	-13
[41] NS(=O)(=O)c1ccc(CCNC(=O)c2ccc(Cl)c(S(=O)(=O)NCc3ccco3)c2)cc1
 : nt	9	5	6.5	-2	3885	-18
[42] Oc1ccccc1CNCC12CC3CC(CC(C3)C1)C2
 : 5	5	-2	-0.2	-6	3525	-9
[43] CCn1c(SCc2cccc(F)c2)nnc1-c1cccnc1
 : -10	-3	6	4.0	15	2754	-2
[44] COc1ccc(-c2ccc(-c3noc(-c4cccc(OC)c4)n3)c(OC)n2)cc1
 : 0	2	2	13	-9	9903	-6
[45] Cc1ccc(NC(=O)C(Nc2cccc(C)c2)c2ccccc2)cc1 (configuration not stated)
 : -1	-3	5	-1.0	4	2136	-26
[46] c1ccc(C2CC(c3ccccc3)n3c(nc4ccccc43)N2)cc1 (configuration not stated)
 : 0	12	3	4.4	-1	2379	-27
[47] C[C@H](CO)N1C[C@H](C)[C@@H](CN(C)S(=O)(=O)c2ccccc2)Oc2c(NC(=O)CCC(F)(F)F)cccc2C1=O
 : nt	2	15	-16	-8	3078	-16
[48] CN(C(=O)c1cccc(NC(=O)Cc2ccc(NC(=O)C3CCN(S(=O)(=O)c4cccc([N+](=O)[O-])c4)CC3)cc2)c1)C1CCC1
 : nt	-6	-2	5.5	-2	4176	-11
[49] O=[N+]([O-])c1ccc(COc2ccccc2C=NO)cc1
 : nt	-2	-4	4.3	2	nt	nt
[50] CCOC(=O)CSc1cc(C)c(C#N)c2nc3ccccc3n12
 : -4	9	3	7.3	-2	2661	-14
[51] COc1cc(C(=O)Nc2nncs2)cc(OC)c1OC
 : -7	3	2	4.9	-3	4073	12
[52] O=c1[nH]cnc2c([N+](=O)[O-])cccc12
 : 1	4	5	4.1	3	3142	-18
[53] Cc1cccc(-n2ncc3c(=O)[nH]c(SCC(=O)Nc4cc(C)on4)nc32)c1
 : nt	9	8	1.1	2	4027	-25
[54] CCc1ccc(CCC(=O)Nc2ccc(C)c(C)c2)o1
 : -14	10	9	4.0	8	8496	-5
[55] CCOC(=O)CN(C(=O)CSc1nnc(-c2ccncc2)n1CCCOC)c1ccccc1
 : -6	0	1	4.7	5	3275	-6
[56] Cc1cc(F)ccc1S(=O)(=O)N1CCCOC1CNC(=O)C(=O)NCc1ccncc1 (configuration not stated)
 : 0	2	5	-0.3	0	5728	-24
[57] CC(Oc1ccc(F)cc1)C(=O)Nc1cc(Cl)ccc1-n1cncn1 (configuration not stated)
 : -4	1	-3	2.3	5	?	3
[58] COc1ccc(CCNC(=O)c2cc(C3CC3)nc3c2cnn3C(C)C)cc1OC
 : nt	5	2	-1.5	7	?	-21
[59] COc1cc(OC)c2c(C)cc(=O)oc2c1C(CCN1CCOCC1)c1ccc(N(C)C)cc1 (configuration not stated)
 : -8	9	8	5.0	2	3822	-13
[60] CCOC(=O)C1CCCN(S(=O)(=O)c2ccc(OC)cc2)C1 (configuration not stated)
 : -6	10	3	4.5	2	10950	-16
[61] COc1ccc(-c2csc3ncnc(N4CCN(c5cccc(C)c5C)CC4)c23)cc1
 : 11	-6	-8	-11	-3	nt	-16
[62] COC(=O)CN1C(=O)C(C)(C)Oc2ccc(C(=O)NC3CC3)cc21
 : 2	-2	2	1.4	-2	22838*	0
[63] CC(C)(C)C(=O)Nc1ncc(C(F)(F)F)cc1Cl
 : -4	9	5	5.0	3	10795	-13
[64] COc1ccc(NC(=O)CNC(c2ccccc2)c2ccccc2)cc1
 : -18	3	1	1.2	28	4143	-15
[65] C/C=C(\C)c1nnc(NC(=O)OCC)s1
 : 1	nt	nt	3.0	7	4038	-25
[66] COc1ccc(C(=O)OCC(=O)NC2CC2)cc1[N+](=O)[O-]
 : -3	7	7	3.5	6	2276	-32
[67] c1ccc2sc(C3CCN(Cc4nnnn4Cc4ccc5c(c4)OCO5)CC3)nc2c1
 : -10	4	6	4.4	0	9081	-35
[68] O=C(CSc1nnc(C2CCCCC2)n1Cc1ccccc1)NCc1ccco1
 : -4	0	0	10	-3	3313	5
[69] COc1cccc(OC)c1-c1nn2c(-c3ccco3)nnc2s1
 : -5	10	7	4.0	-10	20967*	-39
[70] Cc1nn(C(C)C(=O)NCC2CCCO2)c(=O)c2cc3occc3n12 (configuration not stated)
 : 4	-5	-2	2.2	9	3139	-32
[71] COc1ccc(N2CCN(C(=O)c3c(-c4ccccc4)noc3C)CC2)cc1
 : 0	nt	nt	1.5	8	5171	-20
[72] N#CNC(=Nc1ccc(F)cc1)SCc1ccccc1
 : 7	5	13	2.0	-1	2028	-20
[73] Cc1c(NC(=O)C=Cc2cn(-c3ccccc3)nc2-c2ccccc2)c(=O)n(-c2ccccc2)n1C
 : nt	1	3	0.4	1	nt	nt
[74] CN(CC(=O)NCc1ccccc1)S(=O)(=O)c1cnc[nH]1
 : -12	19	7	3.1	10	11341	-14
[75] COc1ccc(-c2c[n+](CC(=O)N3c4ccccc4Sc4ccccc43)c3n2CCC3)cc1
 : 5	-1	13	17	-16	5945	-25
